VDR inh: blocks the human vitamin D receptor; P11473; VDR-SRC2-3 peptide fluorescence polarization, 2 h; Potency, µM, for inactives: max response, negative = inhibition, actives largely listed as inhibitors; 400,000 tested, 0.93% active; active means well fitted inhibition curve with a large enough effect; inconclusive means small, poorly fitted or top-dose-only effect, or another doubt; inactive means no such curve, though single readings can be large or run the other way; further: series mostly up to about 120 µM
Target sequence (P11473 whole entry, looked up): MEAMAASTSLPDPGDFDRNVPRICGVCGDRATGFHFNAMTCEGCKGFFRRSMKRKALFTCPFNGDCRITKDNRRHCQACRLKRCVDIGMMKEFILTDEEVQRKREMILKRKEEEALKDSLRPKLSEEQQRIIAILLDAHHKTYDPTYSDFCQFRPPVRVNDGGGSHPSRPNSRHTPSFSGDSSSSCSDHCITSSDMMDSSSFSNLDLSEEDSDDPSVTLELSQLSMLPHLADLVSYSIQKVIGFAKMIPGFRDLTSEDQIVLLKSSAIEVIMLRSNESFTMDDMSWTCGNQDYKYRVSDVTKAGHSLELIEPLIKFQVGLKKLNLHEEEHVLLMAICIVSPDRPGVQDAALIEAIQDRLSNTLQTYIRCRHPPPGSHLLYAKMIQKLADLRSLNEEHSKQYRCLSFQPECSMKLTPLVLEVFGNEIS
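Two reagent solutions held at 4 deg C in the dark were dispensed, compounds pinned at 23 nl, and the mixture incubated 2 h at room temperature. Read-out: fluorescence polarization of VDR–SRC2-3 peptide binding.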
Active calls of the source: *; ? = inconclusive; & = joins results of further samples; [ ] = dose if it differs, or a comment. On the % scale 0 is the no-effect control and ±100 the full control effect; potency means the concentration at half of the fitted maximal effect. Not all compounds are listed; the hit share may differ from the screen's.

Molecule,VDR inh
COc1ccccc1-c1cc(C(F)(F)F)nc(S(=O)(=O)CCCC(=O)Nc2cc(C)ccc2O)n1,?
Cc1ccc(C)c(S(=O)(=O)Nc2ccc(-n3cnnn3)cc2)c1,10%
COc1ccc(C(=O)N/C(=C/c2ccco2)C(=O)NC2CCS(=O)(=O)C2)cc1 (centres undefined),-5%
CC1CCCCN1CCCNC(=O)c1nn(C)c2c1CS(=O)(=O)c1ccccc1-2 (centres undefined),-2%
CC(C)c1ccccc1NC(=S)NC(C)c1ccccc1 (centres undefined),-1%
Cc1nc2ccccc2c(=O)n1/N=C/c1cccs1,-8%
O=C(NCCOc1ccccc1)c1n[nH]c(=O)c2ccccc12,-10%
CC(=O)N1CCN(C(=O)c2ccc(-c3ccccc3Cl)o2)CC1,-26%
O=C(NCCc1ccc(Cl)cc1)c1ccc2ccccc2n1,42%[activator]
COc1ccc(NC(=O)c2c(C(F)(F)F)nn(C)c2SCc2ccccc2Cl)cc1,-1%
COCCN(CCOC)C(=O)CSc1ccc(S(=O)(=O)N2CCN(C)CC2)cn1,-3%
COc1cccc(CN(C)C(c2ccccc2)c2ccccc2)c1OC,-3%
c1ccc(-c2nnc(CSc3nnc(-c4ccncc4)n3Cc3ccco3)o2)cc1,-6%
Cn1c(CNC(=O)c2ccccc2F)nnc1SCC(=O)NCc1ccccc1,-19%
O=C(Cn1ncc2c3ccccc3n(Cc3cccc(Cl)c3)c2c1=O)NCc1ccccn1,-20%
COc1ccc2cc(CCNC(=O)c3ccc(S(=O)(=O)N4CCOCC4)cc3)c(=O)[nH]c2c1,-18%
COc1ccc(-c2nn(-c3ccccc3)cc2C2NC(=O)NC(C)=C2C(=O)OC(C)C)cc1OC (centres undefined),6%
CC(C)(C)c1ccc(OCC(=O)Nc2ccc(C(=O)OC3CCCCC3)cc2)cc1,-27%
CC(=O)Nc1c(C)nn(-c2ccccc2)c1N1CCC(C(=O)Nc2ccc(Cl)cc2C)CC1,11%
COc1ccc(C(=O)NCCCNC(=O)c2ccco2)cc1OC,-4%
O=C(CCC(=O)N1CCSc2ccccc21)NCc1cccc(Br)c1,-11%
O=C(CSc1nnnn1C1CC2CCC1C2)Nc1ccnc2ccccc12 (centres undefined),13%
COc1ccc(N(C)C(=O)C2CCCN2S(=O)(=O)c2cccc3nsnc23)c(OC)c1 (centres undefined),7%
O=C(N=Nc1c(O)n(Cc2ccccc2)c2ccccc12)c1cc2ccccc2cc1O,-2%
CCN(CC)CCN(Cc1cc2cc(C)ccc2[nH]c1=O)C(=S)NCc1ccco1,-8%
O=C(/C=C/c1cccs1)Nc1ccc(Br)cn1,-11%
CC(=O)Nc1ccc(CN2CCN(CCc3ccccc3)C(CCO)C2)cc1 (centres undefined),21%
CCCSc1nnc(NC(=O)Cc2coc3cc(C)ccc23)s1,6%
Cc1nnc2c(N3CCN(c4ccccc4)CC3)nc3ccc(C(=O)c4ccccc4)cc3n12,-17%
COc1ccc(Cn2nnnc2C(c2cc3cc(C)cc(C)c3[nH]c2=O)N2CCOCC2)cc1 (centres undefined),9%
COC(=O)c1ccc(CN(Cc2ccc(OC)c(OC)c2)S(=O)(=O)c2cc(C(=O)Nc3cccc(C)c3)ccc2F)cc1,22%
O=C(/C=C/c1ccncc1)c1ccc(NC(=O)c2ccccc2F)cc1,32µM*
Cc1ccc(NC(=O)CSc2nnc(-c3ccncc3)n2N)cc1C,-7%
COc1ccc(C(=O)N2CCC(C(=O)Nc3ccc(OC)c(OC)c3)CC2)cc1,28%
COC(=O)[C@@H](Cc1c[nH]c2ccccc12)NCc1ccc(B(O)O)cc1,4%
O=C1C=CC(=Nc2ccc3c(c2)C(=O)c2ccccc2-3)O1,8%
CCCCn1c(N)c(N(CCC(C)C)C(=O)c2ccc3c(c2)OCCO3)c(=O)[nH]c1=O,-5%
CCOC(=O)c1cnc(N2CCN(c3cccc(C)c3C)CC2)c2ccccc12,9%
CN(Cc1ccccc1)C(=O)c1cccc(NC(=O)c2ccco2)c1,1%
Cc1cc(-c2ccccc2)nc2oc3c(c12)NC(=O)CN(c1ccccc1)C3=O,-2%
COc1ccc2c(c1)c(C(C)=O)c(C)n2-c1ccc(C(C)=O)cc1,3%
CCCCCCC1(C)NC(=O)N(C(C)C(=O)Nc2ccc(N3CCOCC3)cc2)C1=O (centres undefined),9%
Cc1ccc(NS(=O)(=O)c2cc(C(=O)N(C)C3CCN(C)CC3)ccc2Cl)cc1Cl,-15%
CS(=O)(=O)N1CCc2cc(C(=O)Nc3ccc(Cl)c(C(F)(F)F)c3)ccc21,9%
CCOc1ccc(CCNC(=O)c2ccc3c(c2)N(Cc2ccccc2)C(=O)c2ccccc2S3=O)cc1OCC (centres undefined),-10%
CCOc1ccc(S(=O)(=O)N(CC(=O)NCc2ccncc2)c2ccc(C)cc2)cc1,-15%
O=C(c1ccc(COc2c(F)c(F)c(F)c(F)c2F)o1)N1CCN(Cc2ccc3c(c2)OCO3)CC1,-6%
COCCNC(=O)C(c1ccc(C)o1)N(C(=O)Cn1nnc2ccccc21)c1ccccc1 (centres undefined),5%
Cc1nnc(SCC(=O)NC2CCCc3c2cnn3-c2ccc(F)cc2F)o1 (centres undefined),-16%
COc1ccc(OC)c(/C=N/NC(=O)CNC(=O)c2ccc(S(=O)(=O)N3CCCC3)cc2)c1,-6%
CCn1c(COc2ccc(C)cc2)nnc1SCc1nc2ccccc2[nH]1,-1%
CCOc1ccc(/C=N/N2C(C)CCCC2C)cc1 (centres undefined),-15%
CCC(C)c1ccccc1OCCCCN1CCCC1 (centres undefined),-12%
O=C(CSc1nc2ccccc2nc1Cc1ccc(Cl)cc1)N1CCCCC1,4%
CCCCOc1ccc(C(=O)Nc2onc3c2CCCC3)cc1,23%
COc1ccc(C)cc1Nc1nc2ccccc2c2nnc(C)n12,1%
CCOc1ccc2nc(N/C(N)=N/C(=S)Nc3cccc(OC)c3)nc(C)c2c1,-9%
O=C(CSc1nnc2ccccn12)c1ccccc1,7%
COc1ccc(OC)c(NC(=O)c2cc3c(s2)-c2ccccc2SC3)c1,9%
Cc1ccc(C)c(NC(=S)c2nc3ccccc3s2)c1,9%

Later entries
Molecule,VDR inh
N#Cc1c(-c2ccccc2)nc(N2CCCCCC2)[nH]c1=O,6%
O=C(NCc1ccccc1Br)C1CCCN(C(=O)N2CCOc3ccccc32)C1 (centres undefined),12%
CC(NC(=O)C(=O)N/N=C/c1ccc(Cl)cc1)c1ccccc1 (centres undefined),-9%
Cc1ccccc1C(=O)NC1CCN(C(=O)Nc2ccccc2Cl)CC1,-17%
O=C(C[C@@H]1C/C=C\C[C@H](NC(=O)OCC2c3ccccc3-c3ccccc32)C(=O)OC[C@H]2CCCN2C1=O)N[C@H](CO)Cc1ccccc1,-14%
Cc1cc(OCC(=O)N2CCC(c3nc4ccccc4s3)CC2)ccc1Cl,9%
Cc1cc(=O)n(C(NC(=O)c2ccccc2)C(=O)c2ccccc2)cn1 (centres undefined),-11%
CCCN1CCN(c2ncnc3sc(C(=O)Nc4cccc(Cl)c4C)c(C)c23)CC1,11%
CCn1ccnc1CN1CCC(CO)(CCOc2ccccc2)CC1,15%
CCCn1c(N)c(C(=O)CSc2nnc(Cc3ccccc3)o2)c(=O)n(C)c1=O,0%
N#CCc1ccc(OC(=O)c2cccnc2)cc1,0%
O=c1[nH]c(CSc2ncc(-c3ccc(F)cc3)n2Cc2ccco2)nc2ccccc12,7%
O=C(CCC1CCCN(c2ncccn2)C1)NCc1ccc(F)c(F)c1 (centres undefined),6%
CC(=O)OC(C)(C)C#CCN1CCCC1,5%
COc1cccc([C@@H]2Oc3ccc(Br)cc3C(=O)[C@H]2OC(=O)Nc2ccc(OC(F)F)cc2)c1,0%
O=C(N/N=C/c1ccc2c(c1)OCO2)C1COc2ccccc2O1 (centres undefined),-3%
COC1CC(C)NC(=S)N1 (centres undefined),-19%
O=C(c1cnccn1)N1CCN(c2ccccc2)CC1,-16%
CCOc1ccc(N(CC(=O)OC)S(=O)(=O)c2c(C)noc2C)cc1,89µM*
O=C(Nc1ccc(S(=O)(=O)N2CCCCC2)cc1)C1CCN(C(=O)c2ccc(F)cc2)CC1,0%
Cn1cc(S(=O)(=O)N2CCCCCC2)cc1C(=O)N1CCN(c2ccc(Cl)cc2)CC1,-3%
COc1ccccc1CNC(=O)c1cc2cc(S(=O)(=O)N3CCCCC3)ccc2n1C,15%
COC(=O)C1=C(C)NC(=O)NC1c1ccc(N2CCC(c3ccccc3)=N2)cc1 (centres undefined),?
CCOc1ccc(C(=O)NCC(=O)OCc2cc(C(C)=O)ccc2OC)cc1,-8%
CCC(=O)c1ccc(N2CCN(S(=O)(=O)c3ccccc3)CC2)c(F)c1,2%
CC(C)NC(=O)NC(=O)COC(=O)c1ccc([N+](=O)[O-])cc1Cl,-10%
COc1ccc(NC(=O)C(=O)NCC2CCCN2S(=O)(=O)c2ccc(C)cc2)cc1 (centres undefined),3%
Cc1cccc(Oc2nc3ccccn3c(=O)c2/C=C(\C#N)C(=O)NC2CCS(=O)(=O)C2)c1C (centres undefined),?
Cc1cccc(-c2nc(CS(=O)CC(=O)NCc3ccc(Cl)cc3)c(C)o2)c1 (centres undefined),-19%
O=C(c1ccco1)N1CCN(Cc2cccc(C(F)(F)F)c2)CC1,-7%

Quoted at random: seven entries already listed, in no set order.
Molecule,VDR inh
Cc1cccc(Oc2nc3ccccn3c(=O)c2/C=C(\C#N)C(=O)NC2CCS(=O)(=O)C2)c1C (centres undefined),?
COc1ccc(NC(=O)C(=O)NCC2CCCN2S(=O)(=O)c2ccc(C)cc2)cc1 (centres undefined),3%
O=C(c1cnccn1)N1CCN(c2ccccc2)CC1,-16%
COC(=O)C1=C(C)NC(=O)NC1c1ccc(N2CCC(c3ccccc3)=N2)cc1 (centres undefined),?
Cc1cccc(-c2nc(CS(=O)CC(=O)NCc3ccc(Cl)cc3)c(C)o2)c1 (centres undefined),-19%
CCOc1ccc(N(CC(=O)OC)S(=O)(=O)c2c(C)noc2C)cc1,89µM*
COC1CC(C)NC(=S)N1 (centres undefined),-19%

(next part)
Molecule,VDR inh
COc1ccc(OC)c(NC(=O)CSc2ccc(-c3cccnc3)nn2)c1,3%
C#CCSc1ncc(-c2ccccc2)cn1,-16%
O=C(c1ccc2ccccc2c1)C1CCCN(C(=O)c2noc3c2CCCC3)C1 (centres undefined),9%
C[C@@H]1CN([C@H](C)CO)C(=O)Cc2cc(NC(=O)Nc3ccccc3)ccc2O[C@@H]1CN(C)C(=O)Nc1ccc2c(c1)OCO2,5%
CCCCCCCc1c(C#N)c(N)[nH]c(=S)c1C#N,?
CC1(C)CC(=O)C(c2c[nH]c3ccccc23)C(=O)C1,10%
C=CCNC(=O)c1cccc2c1C(=O)c1ccc(N3CCCC3)cc1S2(=O)=O,-7%
O=C(OC1CCOC1=O)c1cc(-c2cccs2)nc2ccccc12 (centres undefined),11%
COc1ccc(CN2C3CCCC2CC(NC(=O)/C=C/c2ccccc2)C3)cc1 (centres undefined),-2%
CNc1ccccc1C(C)(C)c1ccn[nH]1,18%
Cc1cc(C)cc(C(=O)N2CC(=O)Nc3ccc(Br)cc3C2c2ccccc2)c1 (centres undefined),-1%
COCCCN(C(=O)CCOc1ccc(C)cc1)c1c(N)n(Cc2ccccc2)c(=O)[nH]c1=O,-15%
CCOc1ccc(N(CC)C(=O)CCNC(=O)Cn2ccc3ccccc3c2=O)cc1,5%
Cc1cc(-n2c(C)cc(C(=O)CSc3nc4ccccc4c(=O)n3Cc3ccco3)c2C)no1,4%
CCOc1ccccc1NC(=O)CCC(=O)Nc1ccc2nc(N3CCN(C)CC3)cc(C)c2c1,-8%
O=C(c1cc(-c2ccccc2)on1)N1CCCCCC1,23%
COc1ccccc1N1CCN(C(=O)c2cc(-c3ccc(Br)cc3)on2)CC1,15%
O=C(Nc1cc(S(=O)(=O)N2CCOCC2)ccc1O)c1ccco1,0%
Cc1ccc(CNc2ccc3c(c2)ncn3C)cc1,-11%
CC(=O)NCCOc1c(C)cc(S(N)(=O)=O)cc1C,21%
NC(=O)NC(=O)COC(=O)/C=C/c1cccc(Br)c1,-15%
CC(=O)Oc1cc(C)c(OC(C)=O)c2ccccc12,2%
NCCc1nnc(SCc2ccccc2)o1,5%
CCN(Cc1ccccc1)S(=O)(=O)c1ccc(F)cc1,-1%
Cc1ccc(NC(=O)CCNS(=O)(=O)c2ccc(Br)cc2)cc1S(=O)(=O)N1CCOCC1,-29%
CC(C)C[C@H](NC(=O)CN(C)C(=O)[C@H](Cc1ccccc1)NC(=O)[C@H](Cc1ccccc1)NC(=O)[C@H](CCC(N)=O)NC(=O)[C@H](CCC(N)=O)NC(=O)[C@@H]1CCCN1C(=O)[C@H](CCCCN)NC(=O)[C@@H]1CCCN1C(=O)[C@@H](N)CCCN=C(N)N)C(=O)N[C@@H](CCS(C)(=O)=O)C(N)=O,-11%
CC(=O)c1cccc(NC(=S)Nc2cccc3ccccc23)c1,-4%
CCN(C(=O)COC(=O)c1cc([N+](=O)[O-])ccc1N1CCCCC1)C1CCS(=O)(=O)C1 (centres undefined),-2%
Cc1ccc(NC(=O)c2cccc(N(C)C)c2)cc1NC(=O)c1ccc(O)cc1,14%&5%&-6%
COc1ccc(-c2nc3ccccc3n3c(-c4ccccc4)c4c(=O)n(C)c(=O)n(C)c4c23)cc1OC,-24%

Assay outcomes from PubChem BioAssay.
